Compound activity deposited in PubChem by Fisher Drug Discovery Resource Center.
NPYLR7 ag: activates Aedes aegypti NPYLR7 receptor | HEK293T NPYLR7/Galpha15, GCaMP6s calcium fluorescence | activation, % at 10 µM | actives 0.15% (n = 270,000); in the data active = activation above about 40%;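 note: 0% = vehicle and 100% = reference agonist at the receptor; some compounds past the cut are filed as inactive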
NPYLR7 ag max-min: further read-out of NPYLR7 ag, marked with its call; activation, %; measured here: Max-Min RFU normalised activation; some inactives read as strong as hits;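 span of the calcium signal over five minutes; 0% = vehicle and 100% = native peptide agonist; compound fluorescence can raise it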
Starred values were filed as active, the others as inactive. Only part of the results is shown; count on the stated rates, not on these rows.

The opening 25 records as a preview:
SMILES	NPYLR7 ag	NPYLR7 ag max-min
COc1ccc(-c2onc3c2CCc2ccccc2-3)cc1NC(=O)c1cc(C(F)(F)F)ccc1C(F)(F)F	2	-2
CN(Cc1cc(-c2ccncc2)no1)C(=O)c1cc(-c2cccn2C)n[nH]1	7	9
CCCn1c(C(=O)NCCCN2CCCC2=O)cc2c(=O)n(C)c(=O)n(C)c21	-2	-3
O=C(NC(CCn1ccnc1)c1ccccc1)c1cc2n(n1)CCNC2 (stereo unspecified)	5	-4
Cc1nc(C)c(-c2csc(NCc3ccco3)n2)s1	8	6
CCOc1cc(Cl)c(S(=O)(=O)NCCCN(C)C)cc1Cl	-12	-14
Cc1cc(C(=O)NNC(=O)CNC(=O)C23CC4CC(CC(C4)C2)C3)c(C)o1	-2	-3
COc1ccccc1/C=C/c1nn2c(C(F)(F)F)nnc2s1	-3	-4
Cc1c(F)cccc1N1C(=O)CSC1c1cccc(NC(=O)c2ccc(Cl)cc2Cl)c1 (stereo unspecified)	0	7
Cc1nc(Nc2ccc(NC(=O)Nc3cccc(F)c3C)cc2)cc(-n2ccnc2)n1	-15	-22
COc1cc(S(=O)(=O)N(C)C)ccc1Cl	3	2
COc1ccccc1CN1CCC2(CC1)NC(=O)c1c(F)cccc1N2	0	4
Cc1cn(C)nc1C(=O)N(CCN1CCOCC1)c1nc2ccc(F)cc2s1	2	8
Cc1cccnc1N1CCN(Cc2cc(C(C)C)no2)CC1	0	-6
CCOC(=O)c1c(C)c(C(=O)NC2CCCCCC2)c(C)n1C	2	23
CCN(Cc1noc(C(C)(C)C)n1)Cc1ccc(C#N)cc1F	2	2
O=C(NS(=O)(=O)c1ccc(Cl)cc1F)c1cccc2cn[nH]c12	1	-4
CCO[C@H]1COC[C@@H]1NC(=O)c1occc1C	-1	32
O=C(/C=C/c1cccc([N+](=O)[O-])c1)N(Cc1cccnc1)c1nc2c(F)cc(F)cc2s1	-15	-9
CCCc1nc(N2CCN(C(=O)Nc3ccc(OC)cc3OC)CC2)c2c(-c3ccccc3)noc2n1	17	20
CCC(C)(C#N)NC(=O)c1ccc(S(C)(=O)=O)cc1 (stereo unspecified)	7	2
Cc1cc(C)n(CC(C)NC(=O)c2cc3c(cc2O)CCCC3)n1 (stereo unspecified)	9	4
C/C=C(\C)C(=O)N1CCN(c2nc3nccc(-c4cccs4)n3n2)CC1	-1	-3
O=C(O)CCCn1c(=S)[nH]c2cc3c(cc2c1=O)OCO3	-7	-10
O=C(NC1CCN(c2ccccc2C(=O)NCc2ccco2)CC1)c1ccc(C(F)(F)F)cc1	-4	4

This part in full, from the first entry:
SMILES	NPYLR7 ag	NPYLR7 ag max-min
COc1ccc(-c2onc3c2CCc2ccccc2-3)cc1NC(=O)c1cc(C(F)(F)F)ccc1C(F)(F)F	2	-2
CN(Cc1cc(-c2ccncc2)no1)C(=O)c1cc(-c2cccn2C)n[nH]1	7	9
CCCn1c(C(=O)NCCCN2CCCC2=O)cc2c(=O)n(C)c(=O)n(C)c21	-2	-3
O=C(NC(CCn1ccnc1)c1ccccc1)c1cc2n(n1)CCNC2 (stereo unspecified)	5	-4
Cc1nc(C)c(-c2csc(NCc3ccco3)n2)s1	8	6
CCOc1cc(Cl)c(S(=O)(=O)NCCCN(C)C)cc1Cl	-12	-14
Cc1cc(C(=O)NNC(=O)CNC(=O)C23CC4CC(CC(C4)C2)C3)c(C)o1	-2	-3
COc1ccccc1/C=C/c1nn2c(C(F)(F)F)nnc2s1	-3	-4
Cc1c(F)cccc1N1C(=O)CSC1c1cccc(NC(=O)c2ccc(Cl)cc2Cl)c1 (stereo unspecified)	0	7
Cc1nc(Nc2ccc(NC(=O)Nc3cccc(F)c3C)cc2)cc(-n2ccnc2)n1	-15	-22
COc1cc(S(=O)(=O)N(C)C)ccc1Cl	3	2
COc1ccccc1CN1CCC2(CC1)NC(=O)c1c(F)cccc1N2	0	4
Cc1cn(C)nc1C(=O)N(CCN1CCOCC1)c1nc2ccc(F)cc2s1	2	8
Cc1cccnc1N1CCN(Cc2cc(C(C)C)no2)CC1	0	-6
CCOC(=O)c1c(C)c(C(=O)NC2CCCCCC2)c(C)n1C	2	23
CCN(Cc1noc(C(C)(C)C)n1)Cc1ccc(C#N)cc1F	2	2
O=C(NS(=O)(=O)c1ccc(Cl)cc1F)c1cccc2cn[nH]c12	1	-4
CCO[C@H]1COC[C@@H]1NC(=O)c1occc1C	-1	32
O=C(/C=C/c1cccc([N+](=O)[O-])c1)N(Cc1cccnc1)c1nc2c(F)cc(F)cc2s1	-15	-9
CCCc1nc(N2CCN(C(=O)Nc3ccc(OC)cc3OC)CC2)c2c(-c3ccccc3)noc2n1	17	20
CCC(C)(C#N)NC(=O)c1ccc(S(C)(=O)=O)cc1 (stereo unspecified)	7	2
Cc1cc(C)n(CC(C)NC(=O)c2cc3c(cc2O)CCCC3)n1 (stereo unspecified)	9	4
C/C=C(\C)C(=O)N1CCN(c2nc3nccc(-c4cccs4)n3n2)CC1	-1	-3
O=C(O)CCCn1c(=S)[nH]c2cc3c(cc2c1=O)OCO3	-7	-10
O=C(NC1CCN(c2ccccc2C(=O)NCc2ccco2)CC1)c1ccc(C(F)(F)F)cc1	-4	4
Next structures
SMILES	NPYLR7 ag	NPYLR7 ag max-min
CCSC1CCC(NC(=O)N[C@H]2c3ccccc3C[C@H]2O)C1 (stereo partly specified)	-1	2
CC(C)C(=O)N1CCC(NS(=O)(=O)N(C)C)CC1	8	8
COC(=O)c1ccc(N=C2SC(C(=O)Nc3ccccc3OC)CC(=O)N2C)cc1 (stereo unspecified)	-4	-4
CCCCCCc1ccc(C(=O)N2CCN(C(=O)CCCSc3nnc(-c4ccccc4Cl)n3-c3ccccc3)CC2C)cc1 (stereo unspecified)	6	22
CCOc1ccccc1CN1CCCn2cccc2C1c1ccccc1C(F)(F)F (stereo unspecified)	-9	-8
CCOC(=O)CNC(=O)NC(Cc1ccccc1)c1nnc(SCc2cccc(C)c2)n1-c1cc(Cl)ccc1C (stereo unspecified)	23	18
CC(C)COC(=NCc1ccco1)NC(=O)c1cccc(C(F)(F)F)c1	9	15
O=C(CSc1nc(=O)n(CC2CCCO2)c2c1CCC2)NCCc1ccccc1 (stereo unspecified)	-3	-10
COC(=O)NC1(C(F)(F)F)OCCO1	2	13
Nc1ccc([N+](=O)[O-])c(OC(F)F)c1	11	9
CC(C)(CCl)C(=O)Nc1ccc(N2CCCC2)c(C(=O)NCc2ccc(F)cc2)c1	-2	6
CCC(=O)Nc1nc(-c2cc(OC)ccc2OC)cs1	3	1
O=C(CCC(F)(F)F)NCCc1c(F)cccc1Cl	3	1
CCCc1nnc2c(=O)n(-c3ccc(OCC)cc3)ccn12	7	-3
COc1cccc(COC(CN2CCN(C(=O)c3cc(C)oc3C)CC2)c2ccc(Cl)cc2)c1 (stereo unspecified)	-2	4
COCC(=O)Nn1cnc2c(cnn2-c2ccc(C)cc2)c1=O	6	4
CC1CN(S(=O)(=O)c2csc(-c3ccc(Br)cc3)n2)CCO1 (stereo unspecified)	13	11
CC(C)CCn1c(=O)c2c(nc3n2CC(C)CN3Cc2ccccc2)n(C)c1=O (stereo unspecified)	-2	-1
Cc1cccc(N(CC(=O)N2CCC[C@H]2C(=O)O)S(C)(=O)=O)c1	1	0
CC(C1CC1)N(C)C(=O)c1cc2ccccc2cc1O (stereo unspecified)	1	0
O=c1c2[nH]c3ccccc3c2nc(SCCC2OCCO2)n1-c1ccccc1F	-5	-5
Cc1cc2sc(NC(=O)COCC(F)(F)F)nc2s1	3	2
Cc1cc(N(C)Cc2snnc2C)nc(-c2cccnc2)n1	-1	-3
O=C(Nc1cccnc1N1CCN(C(=O)NCc2ccccc2F)CC1)c1ccc2c(c1)OCO2	14	13
O=C(Nc1nncs1)C(c1ccccc1)c1ccccc1	18	11
Remaining list, next part:
SMILES	NPYLR7 ag	NPYLR7 ag max-min
CN(CC1CCCCC1)C(=O)c1cn(-c2cccc(Br)c2)nn1	-1	-2
CCOc1ccc(-c2ccc(=O)n(CCNC(=O)c3sc(C)nc3C)n2)cc1	-3	-3
N#CCC(=O)N1N=C(c2ccccc2)CC1(O)C(F)(F)F (stereo unspecified)	-4	-5
O=C(Nc1nc(OCC(F)(F)F)cnc1-c1ccc(Cl)cc1Cl)c1ccco1	-4	-7
COCCN(CC(=O)N1CCc2sccc2C1COc1cccc(OC)c1)C(=O)c1ccco1 (stereo unspecified)	-2	-1
CC(C)c1ccc(C(=O)N2CCCC(OCc3ccccn3)C2)c(=O)[nH]1 (stereo unspecified)	2	2
O=C(c1ccc(Cl)cc1)c1coc2ccccc2c1=O	9	7
CCOC(=O)N1CCc2c(sc(NC(=O)/C=C/c3ccccc3)c2C(N)=O)C1	-1	-3
CCc1cnc2c(c1SCc1ccc(C(=O)OC)cc1)c(=O)n(C)c(=O)n2C	7	8
COc1ccc(N2C(=O)/C(=C/c3ccc(OC)c(Br)c3)C=C2c2ccccc2)cc1	0	5
O=C(C1CCS(=O)(=O)CC1)N1CC[C@@H](c2ccc3c(c2)OCO3)[C@H](O)C1	-5	-6
COc1cccc(Oc2cc(Cl)ncn2)c1	-14	-15
Cc1noc(C)c1N(C)C(=O)c1cc(Cl)c(Cl)[nH]1	-22	-21
c1ccc(-c2nc3c(c(N4CCN(Cc5ccc6c(c5)OCCO6)CC4)n2)CCC3)cc1	0	-1
Clc1ccc(C2=NN=C3COc4ccccc4N3C2)cc1	-4	-8
COc1ccc(CCC(=O)N2CCCC(C(=O)c3ccc(Cl)cc3)C2)cc1 (stereo unspecified)	3	-2
C1CCC(CCOCC2CCNCC2)CC1	4	0
Cc1cccc(NC(=O)C(C)N(C)Cc2ccc3c(c2)OCCO3)c1 (stereo unspecified)	7	3
C[C@@]12CCC(=O)C[C@@H]1C[C@H](OC(=O)NCc1ccccc1)CC2	5	13
CN(CC1CC(=O)N(C2CCCC2)C1)C(=O)C(C)(C)n1cccc1 (stereo unspecified)	5	3
CC1(C(=O)NCc2ccccc2Br)CCN1C(=O)CCc1ccc(Cl)cc1Cl (stereo unspecified)	6	4
O=C(Nc1ccc2c(c1)CN(C(=O)CC1=CCCCC1)CC2)C1CCCO1 (stereo unspecified)	7	3
COc1cc(/C=C2\C(=O)N(c3cccc(Cl)c3)N=C2C)cc(OC)c1OC	6	14
CCN1CCN(c2c(CNCCCOC)c(C)nn2-c2ccccc2)CC1	2	-2
CN1CCN(n2c3c(c(SCC(=O)N4CCc5ccccc54)nc2=O)CCCC3)CC1	-2	-9
The results go on:
SMILES	NPYLR7 ag	NPYLR7 ag max-min
COc1ccc(NC(=O)CN2C(=O)c3c(Cl)c(Cl)c(Cl)c(Cl)c3C2=O)cc1Cl	-5	-12
COc1ccc([C@H](C)NC(=O)c2c(C)noc2-c2cccs2)cc1	1	13
CC(C)Cn1c(N)c(C(=O)CSc2nnc3n2CCCCC3)c(=O)n(C)c1=O	7	13
CC(C)C(=O)N(Cc1ccccc1)Cc1cc(Cl)ccc1OCc1nc(CO)cs1	13	13
O=S(=O)(Nc1nc2ccccc2nc1Nc1ccc2c(c1)OCO2)c1cccc2nsnc12	0	-3
Cc1cc(NC(=O)CN2Cc3cccc4cccc(c34)C2)nn1-c1ccccc1	0	-5
CN(C(C(N)=O)c1cccc(F)c1)S(=O)(=O)c1ccc(C(C)(C)C)cc1 (stereo unspecified)	9	8
CCN1CCN(c2ccccc2NC(=O)c2cccc(F)c2)CC1	5	5
CN(C(=O)C1CC1)c1ccccc1C(=O)Nc1ccccc1Cl	7	3
C=CCN=C1NN=C(c2cccs2)CS1	4	7
CN1CCC(Cc2noc(-c3ccnc(-n4cnnc4)c3)n2)CC1	-2	-2
CCOC(=O)c1c(C)sc2c1OC(=N)C(C#N)C21C(=O)N(CC(=O)NC(C)(C)C)c2ccccc21 (stereo unspecified)	0	-5
Nc1cc(S(=O)(=O)Nc2ccc(I)cc2)ccc1Cl	2	2
CCCCNCC(=O)N1CC(=O)N(c2cccc(Cl)c2)C1	-12	-15
O=C(Cc1cccs1)NC1C2COCC1CN(CCOc1ccccc1)C2 (stereo unspecified)	11	1
Cc1ccc(NC(=O)c2cn(Cc3ccc(NC(=O)CC4CCCCC4)cc3)cn2)cc1	-9	-9
O=C(Cn1c(O)c(N=Nc2ccc(F)cc2)c2cc(Cl)ccc21)Nc1ccc(F)cc1	-3	-4
CCOC(=O)c1cccnc1Oc1cccc(NC(=O)CCCCCNC(=O)OC(C)(C)C)c1	-21	-27
CN(Cc1cnn(C)c1)C(=O)C1CCC(=O)N(Cc2cccc(C(F)(F)F)c2)C1 (stereo unspecified)	13	0
CN1C(=O)N(CO)C2C1N(C)C(=O)N2CO (stereo unspecified)	7	4
CCOC(=O)CNc1ccccc1C(=O)N1CCC2(CCOCC2)CC1	10	9
O=c1ccc2cc(S(=O)(=O)Nc3ccc(F)cc3)ccc2o1	4	3
COc1ccc(NC(=O)c2ccc(CSc3nnc(Cc4ccccc4)n3-c3ccc(F)cc3)cc2)cc1	21	16
COc1ccc(-c2cc(C(=O)N3CC(C)OC(C)C3)c(C)n2-c2ccccc2)cc1 (stereo unspecified)	19	34
O=C(c1csc(-c2ccc3c(c2)CCO3)n1)N1CCN(Cc2cc(=O)c(OCc3ccccc3Cl)co2)CC1	-1	-8
Next records
SMILES	NPYLR7 ag	NPYLR7 ag max-min
Clc1ccc(-c2n[nH]c(-c3cnccn3)n2)cc1	-5	7
Nc1ccc(N=Cc2ccccn2)cc1[N+](=O)[O-]	3	3
Cc1nc(Cl)cc(NCC(O)CN2CCC(C)CC2)n1 (stereo unspecified)	4	2
Cc1ccc(C)c(Cn2c(-c3ccccc3)c(CCNC(=O)/C=C/c3ccc4c(c3)OCO4)c3ccccc32)c1	-7	-11
COc1ccc(-n2nc(C(C)(C)C)cc2NC(=O)CN(CC(C)C)C(=O)c2ccc(C)c([N+](=O)[O-])c2)cc1	18	18
CS(=O)(=O)c1ccc(Cl)c(NC(=O)COc2cccc(Cl)c2)c1	-4	-4
CC1CCC2(CC1)OCC(Cn1cncn1)O2 (stereo unspecified)	-10	-19
CC(=O)N=c1sccn1CC(O)c1ccccc1 (stereo unspecified)	-1	-5
COc1cc(C)c(S(=O)(=O)N2CCCC2C(=O)NC2CC2)cc1OC (stereo unspecified)	5	1
